Assay outcomes: PubChem BioAssay, National Center for Advancing Translational Sciences (NCATS)
VDR inh: Inhibitors of the vitamin D receptor (VDR): qHTS. VDR-SRC2-3 peptide fluorescence polarization, 2 h. Potency, µM, for the others: max response, negative = inhibition, usual class: inhibitors. 400,000 compounds, 0.93% hits; active means well fitted inhibition curve with a large enough effect; inconclusive means small, poorly fitted or top-dose-only effect, or another doubt; inactive means no such curve, though single readings can be large or run the other way; further: series mostly up to about 120 µM
Target sequence (P11473 whole entry, looked up): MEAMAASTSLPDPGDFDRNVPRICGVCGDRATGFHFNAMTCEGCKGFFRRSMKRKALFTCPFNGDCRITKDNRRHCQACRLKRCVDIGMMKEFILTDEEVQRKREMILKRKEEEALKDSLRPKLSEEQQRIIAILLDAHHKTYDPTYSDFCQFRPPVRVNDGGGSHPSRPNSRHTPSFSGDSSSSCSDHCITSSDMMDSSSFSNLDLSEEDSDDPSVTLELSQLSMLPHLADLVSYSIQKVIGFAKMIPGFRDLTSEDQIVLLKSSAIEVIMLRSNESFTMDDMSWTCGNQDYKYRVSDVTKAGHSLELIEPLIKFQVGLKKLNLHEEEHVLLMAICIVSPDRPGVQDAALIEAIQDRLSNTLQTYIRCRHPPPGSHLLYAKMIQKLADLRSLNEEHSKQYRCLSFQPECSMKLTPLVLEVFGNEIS
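Reagent solutions, kept cold and dark, are dispensed first; compounds are then pinned in at 23 nl, plates briefly spun, and incubated 2 h at ambient temperature. Inhibition of VDR–SRC2-3 peptide binding is read by fluorescence polarization.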
An asterisk follows results filed as active; ? = inconclusive; & = joins results of further samples. On the % scale 0 is the no-effect control and ±100 the full control effect; potency means the concentration at half of the fitted maximal effect. Not all compounds are listed. The share of hits here may be higher or lower than overall.

| SMILES | VDR inh |
| --- | --- |
| O=C(NCCCN=C1NS(=O)(=O)c2ccccc21)c1ccc(S(=O)(=O)N2CCOCC2)cc1 | -16% |
| COc1ccc(/C=N/NC(=O)CN(c2ccc(OC)cc2)S(=O)(=O)c2ccccc2)cc1 | -17% |
| Cc1sc(NC(=O)c2ccco2)c(CN2CCC(C)CC2)c1C | 15% |
| Cc1ccc(NS(=O)(=O)c2csc(C(N)=O)c2)c(C)c1 | -4% |
| CCOC(=O)N1CCN(Cc2ccc3c(c2)OCO3)CC1 | -17% |
| O=C(NNc1cccc(Cl)c1)c1cccnc1Oc1ccccc1 | -9% |
| CC(=O)Nc1cccc(/C(C)=N/Nc2ccc(S(=O)(=O)Nc3ccccc3C(=O)O)cc2[N+](=O)[O-])c1 | ? |
| Cc1ccc(Cc2nc3ccccc3nc2SCC(=O)N2CCc3ccccc32)cc1 | 10% |
| COc1cc(/C=C/C(=O)OCC(=O)NCCN2C(=O)CSC2=O)ccc1OCC#N | -6% |
| O=C(CN1CCN(S(=O)(=O)c2ccc(Cl)c(Cl)c2)CC1)N1CCCCC1 | -19% |
| Cc1ccc(C)c(NC(=O)CN(C)C(=O)c2cc3c(s2)CCCCC3)c1 | -15% |
| CCN(CC)c1ccc(C=C2C(=O)OC(c3ccccc3)OC2=O)cc1 (centres undefined) | ? |
| Cc1cc2ncn(CCOc3ccccc3)c2cc1C | -8% |
| O=C(O)COc1ccccc1/C=N/n1c(C2CCCCC2)n[nH]c1=S | ? |
| CCOC(=O)c1c(NC(=O)c2cccs2)sc(CC)c1-c1cccs1 | -10% |
| O=c1n(Cc2ccc(F)cc2)nc2n1-c1ccccc1SC2 | -5% |
| CCOC(=O)/C(C#N)=C/c1ccc(N2CCN(C)CC2)cc1 | -11% |
| CS(=O)(=O)N1CCN(C(=O)c2ccccc2)C1 | 2% |
| CC(C)NS(=O)(=O)c1ccc(NC(=O)Cc2ccsc2)cc1 | 7% |
| Cc1ccc(N=Cc2c(C)[nH]n(-c3ccccc3)c2=O)nc1 | -8% |
| Cc1cccc(C(=O)N2CCCC(N3CCN(Cc4ccc5c(c4)OCO5)CC3)C2)n1 (centres undefined) | 11% |
| CN(CCCn1c(=S)[nH]c2ncccc2c1=O)Cc1ccccc1 | -8% |
| CCc1cccc(N(C(=O)c2csnn2)C(C(=O)NC2CCCCC2)c2cccnc2)c1 (centres undefined) | -2% |
| CC(=O)Nc1ccc(OC(=O)c2c(-c3ccccc3Cl)noc2C)cc1 | 5% |
| Cc1ccc(Nc2c(-c3ccccc3O)nc3ccc(Br)cn23)cc1 | 15% |
| CC1CCc2sc(NC(=O)c3ccc(N4C(=O)CCC4=O)cc3)c(C(N)=O)c2C1 (centres undefined) | -13% |
| N=C(N)N1CCc2ccccc2C1 | -2% |
| Cc1ccc(C(O)CCc2ccc(N)cc2)cc1 (centres undefined) | -12% |
| COCCNc1nnc(SCC(=O)c2c[nH]c3ccccc23)s1 | 2% |
| COc1ccc(-c2cc(C(=O)N3CCN(c4ccc(F)cc4)CC3)no2)cc1OC | -7%&-5% |
| CCOc1ccccc1N(CC(=O)NCCSCc1ccco1)S(=O)(=O)c1ccccc1 | -20% |
| O=C(N/N=C/c1cc(Cl)ccc1O)c1ccncc1 | ? |
| CCCCN1CCC(CCC(=O)c2cc(Cl)c(N)cc2OC)CC1 | 7%&5% |
| COc1ccc2nc(/C=N/NC(=O)[C@@H]3CCCN3C(=O)OC(C)(C)C)ccc2c1 | -2% |
| Cc1ccc(NC(=O)c2oc3ccc(S(=O)(=O)N(C)C4CCCCC4)cc3c2C)c(C)c1 | 9% |
| COc1cc(NC(=O)c2ccccc2NS(=O)(=O)c2ccc(Cl)s2)cc(OC)c1 | -14% |
| Cc1cc(NC(=O)CCC(=O)N(CC2CCCO2)C(C(=O)NC2CCCC2)c2cccnc2)no1 (centres undefined) | -17% |
| C=CCn1c(CNC(=O)c2cccs2)nnc1SCc1ccc(Cl)cc1Cl | 3% |
| COc1ccccc1CN1C[C@@H]2C[C@@H](c3[nH]c4c(C)cccc4c3C)N3CCC[C@@]23C1=O | 11% |
| CC(=O)N(CCC(Cc1ccccc1)c1ccc2c(c1)OCO2)Cc1ccc(Cl)cc1 (centres undefined) | 3% |

In the list so far, these have a cyano group:
| SMILES | VDR inh |
| --- | --- |
| COc1cc(/C=C/C(=O)OCC(=O)NCCN2C(=O)CSC2=O)ccc1OCC#N | -6% |
| CCOC(=O)/C(C#N)=C/c1ccc(N2CCN(C)CC2)cc1 | -11% |

More compounds follow.
| SMILES | VDR inh |
| --- | --- |
| CC12COC3(C(=O)NCCc4ccccc4)CC1CCC32C (centres undefined) | 9% |
| COc1ccc2nnc(-c3ccccc3)n2n1 | -2% |
| Cc1ccc(NC(=S)N2CCN(C(=O)C3CCCO3)CC2)c(C)c1 (centres undefined) | 2% |
| CC(=O)N/C(=N\OCc1ccc(Br)cc1)c1nonc1NC(C)=O | 2% |
| Cc1ccc(C(=O)N2CC(=O)Nc3ccc(Br)cc3C2c2ccc(F)cc2)cc1C (centres undefined) | -11% |
| C/C(=N\NC(=O)c1ccc(Br)cc1)c1cccc(NC(=O)c2cccnc2)c1 | 9% |
| O=C(Nc1ccc(NC(=O)c2cccs2)cc1)c1ccc(Cl)cc1 | -9% |
| Cc1ccc(CNC(=O)C2CCN(c3nn4cc(-c5ccc(F)cc5)nc4s3)CC2)cc1 | 0% |
| O=C1CCC([N+](=O)[O-])C(c2ccccc2Cl)N1 (centres undefined) | -2% |
| CCN(C(=O)CN1CCC(C)CC1)c1c(N)n(Cc2ccccc2)c(=O)[nH]c1=O | 18% |
| Cc1cc(NC(=O)c2ccccc2Cl)no1 | -2% |
| CCC1(c2ccc(F)cc2)NC(=O)N(CC(=O)N2CCOCC2)C1=O (centres undefined) | 2% |
| COc1cc(Br)c(CCNC(=O)c2ccco2)cc1OC | 10% |
| OCCN1CCN(CC#CCn2c3ccccc3c3ccccc32)CC1 | 2% |
| Cc1ccc(NC(=O)CSc2nc(=O)n(CCN3CCOCC3)c3c2CCC3)c(C)c1 | -1% |
| COc1cc(-c2nnc(-c3ccc(N4CCOCC4)cc3)o2)cc(OC)c1OC | 9% |
| Nc1ccc(-c2cnc(N)c(C(=O)c3cccnc3)n2)cn1 | -4% |
| Cc1cc(C)c2oc(C(=O)N(Cc3ccccc3)C3CCS(=O)(=O)C3)cc(=O)c2c1 (centres undefined) | 4% |
| COc1ccc(-n2nc3c(c2NC(=O)CCl)CSC3)cc1 | -20% |
| COc1ccc(NC(=O)CCNS(=O)(=O)c2ccc3c(c2)c(=O)n(C)c(=O)n3C)cc1OC | 2% |
| C=C(C)CN(CC)CCC(=O)Nc1ccc(OC)cc1OC | 1% |
| CCN(C1CCCCC1)S(=O)(=O)c1ccc(S(=O)(=O)NCc2ccncc2)cc1 | -5% |
| C/C(=N\O)c1ccc(Cl)c(Cl)c1 | -3% |
| C#Cc1ccc([C@@H]2C=C(C(=O)NCc3nc4ccccc4[nH]3)O[C@H](OCC)[C@H]2CCCO)cc1 | -5% |
| CCOC(=O)c1ncccc1NC(=O)CC(=O)Nc1cccnc1C(=O)OCC | 20% |
| COc1ccc(C2C(C(=O)Nc3cc(C)on3)c3ccccc3C(=O)N2C)cc1 (centres undefined) | -15% |
| COc1ccc(CCNC(=O)C2Cc3ccccc3C(=O)O2)cc1 (centres undefined) | -15% |
| CCOC(=O)c1cccc(NC(=O)/C=C/c2ccc3c(c2)OCO3)c1 | -24% |
| CS(=O)(=O)Nc1cccc(-c2ccc3ncnc(Nc4ccccc4)c3c2)c1 | 4% |
| Cc1ccc([N+](=O)[O-])cc1S(=O)(=O)N1CCn2cccc2C1c1ccc(F)c(F)c1 (centres undefined) | -2% |
| CC(C)OC(=O)CCC(=O)Nc1ccc(F)cc1 | 17% |
| CC(NC(=O)CCl)c1ccccc1Br (centres undefined) | 2% |
| O=C(Nc1nccs1)C1CCCN(S(=O)(=O)c2cccc3cccnc23)C1 (centres undefined) | 4% |
| COCCNC(=O)NC(=O)CN1CCCc2ccccc21 | -20% |
| CCOC(=O)[C@H]1[C@H]2COc3ccc(OC)cc3[C@@H]2N2C(=O)c3ccc(Cl)cc3NC(=O)[C@@]12C | -14% |
| CCOC(=O)N1CCN(c2c(N3CCN(c4cc(C)ccc4C)CC3)c(=O)c2=O)CC1 | -13% |
| Cn1c(=O)c2c(nc(N3CCOCC3)n2Cc2ccc(Br)cc2)n(C)c1=O | -5% |
| CN1CCCN(c2ccc([N+](=O)[O-])cc2)CC1 | 10% |
| O=C(c1ccc(F)cc1F)N1CCN(c2n[nH]c(=O)[nH]c2=O)CC1 | 4% |
| CCN(CC)S(=O)(=O)c1ccc(N2CCN(c3cccc(OC)c3)CC2)c([N+](=O)[O-])c1 | -13% |
| CCCCCCC(=O)N1CCN(c2cc3c(cc2F)c(=O)c(C(=O)O)cn3CC)CC1 | 2% |
| COc1cc(C2Nc3ccccc3C(=O)N2c2ccccc2)c(Br)cc1OCC(=O)O (centres undefined) | 3% |
| Cc1ccc(-n2c(SCC(=O)Nc3ccc4c5c(cccc35)CC4)nc(O)c(C)c2=O)cc1 | 12% |
| COc1ccc(-c2onc(C)c2C)cc1S(=O)(=O)N1CCc2ccccc21 | 5% |
| COc1ccc(Cl)cc1NC(=O)c1nc(S(C)(=O)=O)ncc1N(Cc1ccc(C)cc1)Cc1ccco1 | 5% |
| Cc1ccc(NC(=O)CN2C(=O)C3C4C=CC(C4)C3C2=O)cc1S(=O)(=O)N(C)C (centres undefined) | -3% |
| O=C(Nc1nnc(C2CC2)o1)c1ccc(S(=O)(=O)N2CCc3ccccc3C2)cc1 | -14% |
| ClCc1nc2ccccc2n1Cc1ccccc1 | -4% |
| O=C(CCCC(=O)OCC(=O)c1ccc(F)cc1)Nc1cc(C(F)(F)F)ccc1Cl | 10% |
| c1ccc2cc3[nH]c(CN4CCCCC4)nc3cc2c1 | 7% |

The last two records of the section before are carried over, then new ones follow:
| SMILES | VDR inh |
| --- | --- |
| O=C(CCCC(=O)OCC(=O)c1ccc(F)cc1)Nc1cc(C(F)(F)F)ccc1Cl | 10% |
| c1ccc2cc3[nH]c(CN4CCCCC4)nc3cc2c1 | 7% |
| NC(=S)Nc1ncc(CCN2CCOCC2)c(-c2ccc(F)cc2)n1 | -1% |
| COc1ccc(CCNc2oc(-c3ccccc3OC)nc2C#N)cc1 | 8% |
| CC(C)(C)c1ccc(S(=O)(=O)N2CCC(NC(=O)c3ccco3)CC2)cc1 | 6% |
| Cc1oc2c(c1C(=O)NCCCC(=O)O)CCCC2 | 3% |
| Cc1ccc(-n2c(SCC(=O)N3CCC(C)CC3)nc3c([nH]c4ccccc43)c2=O)cc1 | 12% |
| Cc1oc(-c2ccccc2F)nc1Cn1c(SCc2cccc(Cl)c2)nc2ccncc21 | -2% |
| COc1cccc(C2=NS(=O)(=O)N(C)C(C(=O)Nc3ccccc3SC)=C2)c1 | -8% |
| CCc1nnc(NC(=O)CSc2nc(-c3ccc(OC)cc3)ns2)s1 | -7% |
| CS(=O)(=O)n1nc(OC(=O)c2cccc3ccccc23)cc1N | -6% |
| C/C(=N/NC(=O)c1cc2ccccc2cc1O)C1C(=O)c2ccccc2C1=O | -25% |
| COc1ccccc1-c1cc2nc(C)c(CCC(=O)NCCc3ccc(SC)cc3)c(C)n2n1 | -1% |
| O=C(COc1ccc(Cl)cc1)NCCNC(=O)c1ccccn1 | -4% |
| Cn1c(SC2=CS(=O)(=O)c3ccccc32)nc2ccccc21 | -2% |
| Cc1ccc(N2C(=O)c3ccccc3C(C)(C)C2=O)cc1 | 3% |
| CCOc1ccc(CCNC(=O)C2CCCN(S(=O)(=O)N(C)c3ccc(F)cc3)C2)cc1 (centres undefined) | 7% |
| CC(C)(C)N1C(=O)c2ccccc2NC(=O)N1Cc1ccccc1 | -5% |
| O=C(CCN1CCOCC1)Nc1c(-c2ccccc2)c2cc(Br)ccc2[nH]c1=O | 12% |
| O=S(=O)(c1cccc2ccccc12)N1CCC2CC1c1cc(Cl)ccc12 (centres undefined) | -2% |
| COc1ccc2c(c1O)Cc1ccccc1C2=O | 3% |
| COC(=O)CNC(=S)NC(=O)c1ccc(C(C)(C)C)cc1 | -8% |

Entries shown so far that have a tert-butyl group (4):
| SMILES | VDR inh |
| --- | --- |
| COc1ccc2nc(/C=N/NC(=O)[C@@H]3CCCN3C(=O)OC(C)(C)C)ccc2c1 | -2% |
| CC(C)(C)c1ccc(S(=O)(=O)N2CCC(NC(=O)c3ccco3)CC2)cc1 | 6% |
| CC(C)(C)N1C(=O)c2ccccc2NC(=O)N1Cc1ccccc1 | -5% |
| COC(=O)CNC(=S)NC(=O)c1ccc(C(C)(C)C)cc1 | -8% |

Remaining list, next part
| SMILES | VDR inh |
| --- | --- |
| CCC(=O)Nc1nnc(S(=O)(=O)N(CC)c2ccc(Cl)cc2)s1 | -8% |
| Cc1ccc([N+](=O)[O-])cc1NC(=O)CSc1n[nH]c(-c2cccnc2)n1 | 5% |
| CN(C)CCNC(=O)C1CCN(c2nc3ccccc3[nH]2)CC1 | 5% |
| Cc1ccc(-c2nc(CSc3nnc(C)n4c3cc3occc34)c(C)o2)cc1 | 7% |
| COc1cccc(CN(C)Cc2cc(=O)oc3c(C)c(C)ccc23)c1 | -6% |
| O=C(c1cccc2ccccc12)N1CCC(N2CCN(c3ccccc3)CC2)CC1 | -2% |
| CC/C(=N\NC(=O)c1nnn(-c2nonc2N)c1-c1cccc(OC)c1)c1ccc(C)cc1 | -7% |
| CCN1CCN(CCCNC(=O)C2CCCN(c3nc4c(C)cc(C)cc4s3)C2)CC1 (centres undefined) | -4% |
| COc1ccc(-c2nc(CS(=O)CC(=O)NCCN3CCCCCC3)c(C)o2)cc1OC (centres undefined) | -2% |
| CCOc1ccc2oc(C(=O)Nc3ccc(N4CCOCC4)cc3)c(C)c2c1 | -2% |
| CNC(=O)N(O)C1N(/N=C/c2ccc(SC)cc2)C(=S)SC1(C)C (centres undefined) | 9% |
| Cc1ccc(OCc2nnc(SCC(=O)c3cccc([N+](=O)[O-])c3)n2C)cc1 | ? |
| Cc1ccc(OCC(=O)NNC(=O)CSC(=S)N2CCCC2)cc1 | -13% |
